Compound activity as filed in PubChem BioAssay.
2A StopGo = High Throughput Screening for Foot and Mouth Disease Virus Antivirals. human cells with a luciferase reporter of 2A StopGo recoding; control for the full effect not named in the record. AID 1159524, 2015. Potency, µM (highest dose often 57.9 µM), without a hit: at the top dose signal change, negative = less light. actives 1.2% (n = 410,000); active = well fitted falling curve with a large enough effect; inconclusive = small, poorly fitted or top-dose-only effect; inactive = no such curve, though single readings can be large or run the other way; tested in HEK293T cells; note: % is set by controls: 0 for no effect and ±100 for the full control effect; nearly all actives have a fitted effect of over 45% in size; luciferase light after 4 h
SARS PLpro yeast = qHTS of Yeast-based Assay for SARS-CoV PLP; S. cerevisiae expressing SARS-CoV PLpro, growth rescue; control for the full effect not named in the record; actives 0.19% (n = 330,000); Potency, µM (top dose mostly 32.9 µM), without a hit: at the top dose activity, positive = growth rescue; AID 485353, 2010; active means well fitted rising curve with a large enough effect; inconclusive means small, poorly fitted or top-dose-only effect; inactive means no such curve, though single readings can be large or run the other way; note: 0% is about no effect; nearly all actives have a fitted effect of over 55% in size; growth read by luminescence after 48 h
Marburg entry inh = qHTS for inhibitors of binding or entry into cells for Marburg Virus | actives 1.8% (n = 300,000) | Potency, µM (highest dose often 37.8 µM), for inactives: at the top dose activity change, negative = inhibition, actives largely listed as inhibitors | Marburg virus pseudotyped entry inhibition, cell reporter; control for the full effect not named in the record; about a third of the inactives were read at about 46 µM; active = well fitted inhibition curve with a large enough effect; inconclusive = small, poorly fitted or top-dose-only effect, or effect the other way; inactive = flat fitted curve, though single readings scatter; tested in HEK293 cells; about a fifth of its hits are not listed in these tables; note: % is set by controls: 0 for no effect and ±100 for the full control effect; luciferase read-out
NS1 inh = qHTS Assay for Inhibitors of Influenza NS1 Protein Function | S. cerevisiae slowed by influenza A NS1, growth recovery by OD600 | Potency, µM (top dose mostly 46.1 µM), without a hit: top-dose activity, positive = more growth | actives 0.4% (n = 270,000); active means well fitted rising curve with a large enough effect; inconclusive means small, poorly fitted or top-dose-only effect; inactive means no such curve, though single readings can be large or run the other way; note: nearly all actives have a fitted effect of over 50% in size
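Read-out: OD600 growth recovery of NS1-expressing budding yeast. Cells grown overnight at 30C in -URA glucose medium, washed, resuspended and diluted 1:100 in 2% galactose assay medium, pH 6.0. Same strain lacking NS1 served as positive control.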
RE007 growth inh = qHTS Assay for Inhibitors of the HIV-1 protein Vpr | S. pombe RE007 Vpr strain, BacTiter-Glo ATP luminescence, 24 h; control for the full effect not named in the record | Potency, µM (titrated, usually from 92.2 µM), for the others: at the highest dose activity change, negative = less growth | actives 0.21% (n = 360,000); active = well fitted falling curve with a large enough effect; inconclusive = small, poorly fitted or top-dose-only effect; inactive = no such curve, though single readings can be large or run the other way;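 note: % is set by controls: 0 for no effect and ±100 for the full control effect; nearly all actives have a fitted effect of over 50% in size; the assay follows cell death caused by Vpr and the record does not say whether a fall means rescue or toxicity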
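Fission yeast RE007 carrying one integrated HIV-1 vpr copy, seeded at OD 0.01 in PMG+AL medium with 23 nL pinned compound. Grown 24 h at 30 degrees; viability read by BacTiter-Glo luminescence after 5 min.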
Cruzain noTriton = qHTS Assay for Promiscuous and Specific Inhibitors of Cruzain (without detergent); Cruzipain (Trypanosoma cruzi), P25779; purified cruzain, Z-FR-AMC fluorescence, no detergent; Potency, µM, for inactives: max response, negative = inhibition, actives largely listed as inhibitors; actives 2.3% (n = 200,000); AID 1476, 2009;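 note: plate controls were enzyme without inhibitor for no effect and buffer without enzyme for full effect; nearly all actives have a fitted effect of over 40% in size; top concentration of the series not given in the record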
Target sequence (P25779 123-467 limits assumed): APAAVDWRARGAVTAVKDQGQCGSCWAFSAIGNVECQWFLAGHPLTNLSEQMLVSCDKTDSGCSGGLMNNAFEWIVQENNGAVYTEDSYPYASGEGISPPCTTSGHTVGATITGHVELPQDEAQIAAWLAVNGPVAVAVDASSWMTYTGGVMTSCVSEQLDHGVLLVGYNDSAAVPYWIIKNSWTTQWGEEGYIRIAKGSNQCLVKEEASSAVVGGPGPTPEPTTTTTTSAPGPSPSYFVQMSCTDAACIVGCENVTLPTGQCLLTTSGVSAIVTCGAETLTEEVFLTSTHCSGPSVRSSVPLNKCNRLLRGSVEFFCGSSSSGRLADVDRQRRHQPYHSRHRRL
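Detergent-free condition (0.00005% Triton X-100) in acetate buffer pH 5.5 with DTT. 1.5 nM enzyme and compound were pre-mixed 15 min, then 2 uM Z-FR-AMC substrate added; reaction progress from fluorescence change between first and third reads (60 s).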
Cruzain Triton = qHTS Assay for Promiscuous and Specific Inhibitors of Cruzain (with detergent) | Cruzipain (Trypanosoma cruzi), P25779 | purified cruzain, Z-FR-AMC fluorescence, 0.01% Triton | Potency, µM, without a hit: max response, negative = inhibition, hits mostly inhibitors | actives 0.43% (n = 200,000) | AID 1478, 2009;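 note: plate controls were neutral wells for no effect and buffer without enzyme for full effect; nearly all actives have a fitted effect of over 40% in size; top concentration of the series not given in the record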
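Read-out: AMC fluorescence (360 nm excitation, 450 nm emission), four reads over 2 min, first-to-third difference used. Conditions: cruzain 1.5 nM, Z-FR-AMC 2 uM, pH 5.5 acetate, 5 mM DTT, 0.01% Triton X-100.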
LASV entry inh = qHTS for Inhibitors of binding or entry into cells for Lassa Virus; Potency, µM (titrated, usually from 37.9 µM), for inactives: at the top dose activity change, negative = inhibition, hits mostly inhibitors; AID 540256, 2011; Lassa virus pseudotype entry inhibition, cell reporter; control for the full effect not named in the record; actives 1.2% (n = 300,000); active means well fitted inhibition curve with a large enough effect; inconclusive means small, poorly fitted or top-dose-only effect, or effect the other way; inactive means flat fitted curve, though single readings scatter; tested in HEK293 cells; note: % is set by controls: 0 for no effect and ±100 for the full control effect; nearly all actives have a fitted effect of over 50% in size; luciferase read-out
* hit, by the source's call; ? = inconclusive; . = no result given; [ ] = remark or other dose. Unless noted, calls come from the whole dose curve; as a rule, active = well fitted curve in the direction sought with a large enough effect; inconclusive = small, poorly fitted or top-dose-only effect, or another doubt; inactive = no such curve, though single readings can be large; an effect the other way counts as inactive or inconclusive. Potency is the fitted concentration of half-maximal effect.

Screens in order – NS1 inh	Cruzain noTriton	2A StopGo	RE007 growth inh	Marburg entry inh	Cruzain Triton	SARS PLpro yeast	LASV entry inh
Cc1nc(-n2ncc(C#N)c2N)c2c3c(sc2n1)CCC3
    -9%	0%	-8%	-8%	-14%	1.8%	10%	-11%
O=C(Nc1ccc(Cl)c(S(=O)(=O)N2CCOCC2)c1)c1ccccc1-c1ccc(C(F)(F)F)cc1
    -12%	4%	18%	-11%	?	-5.3%	-2%	?
C(#CC1CCCCC1)c1ccc2c(c1)COc1c3ccccc3nn1-2
    -4%	.	20%	-11%	.	.	-1%	.
CC(=O)Nc1cc(C)c(S(C)(=O)=O)c(C)c1
    25%	-3%	-22%	-6%	6%	0.4%	-10%	1%
NS(=O)(=O)c1ccc(N/C=C\C(=O)c2ccc3ccccc3c2)cc1
    3%	6.3µM*	-13%	-22%	?	8.9µM*	-9%	-4%
COC(=O)c1ccc(NC(=O)C(=O)NCC2CCCO2)cc1 (configuration not stated)
    11%	-1%	43%[activator]	1%	4%	0.7%	5%	0%
O=[N+]([O-])c1ccc2nc(NS(=O)(=O)c3ccc(F)cc3)sc2c1
    8%	.	6%	82%	6%[46.1 µM]	.	0%	6%[46.1 µM]
Cc1ccc([N+](=O)[O-])cc1-c1ccc(/C=N\n2nnnc2N)o1
    16%	0%	4%	5%	13%	-9.9%	-5%	-6%
CS(=O)(=O)N(CC(=O)NCc1ccccn1)Cc1ccc(Cl)cc1
    3%	0%	-17%	-5%	25%	0.6%	12%	12%
O=C(Nc1ccc2c(c1)OCCO2)c1ccc(Cl)cc1Cl
    2%	.	-9%	19%	?	.	2%	?
Cn1nc(C(F)(F)F)cc1C(=O)NC1CCCCCC1
    -5%	0%	-13%	-5%	9%	-1.9%	1%	-6%
CCOc1ccc(-c2c(C(=O)N/N=C/c3ccc(C)s3)nnn2-c2nonc2N)cc1
    5%	.	-13%	-5%	-27%[46.1 µM]	.	5%	-21%[46.1 µM]
O=C(COC(=O)c1ccc(O)cc1)Nc1ccc(Cl)cc1
    -3%	.	10%	2%	-27%[46.1 µM]	.	0%	21%[46.1 µM]
CC(=O)c1cc2c(cc1NC(=O)c1ccc(Cl)cc1)OCCO2
    9%	.	-24%	2%	3%	.	0%	17%
Cc1nn(Cc2ccccc2)c2c1C(c1cccc(Cl)c1)C(C#N)=C(N)O2 (configuration not stated)
    18%	2%	?	-4%	?	-4.7%	7%	-25%
NS(=O)(=O)c1ccc(NC(=O)COC(=O)c2cnc(Cl)c(Cl)c2)cc1
    0%	.	-18%	30%	-10%[46.1 µM]	.	0%	9%
Cc1ccc(NC(=O)c2ccc(S(=O)(=O)N3CCOCC3)cc2)c(C)c1
    0%	.	-9%	14%	15%[46.1 µM]	.	1%	.
COCc1ccc(C(=O)N(C)CC2CCCN(CCc3ccc(OC)cc3)C2)o1 (configuration not stated)
    -7%	.	28%	-3%	?	.	-2%	?
Cc1cccc(NC(=O)c2cc(N3CCOCC3)nc3ccccc23)c1
    11%	6%	-14%	-7%	1%	-5.1%	9%	-1%
CN1CCc2nc3sc(C(=O)C45CC6CC(CC(C6)C4)C5)c(N)c3cc2C1
    ?	13µM*	-21%	-8%	-1%	?	-14%	15%
COc1ccc2cc(-c3ccccc3)ncc2c1
    -39%	.	27%	-10%	.	.	-7%	.
COc1cc(C)c(CN2CCN(C(C)C(=O)NC(C)c3ccccc3)CC2)cc1OC (configuration not stated)
    29%	.	-2%	-11%	-9%[46.1 µM]	.	-5%	-22%[46.1 µM]
CC1Cc2cc(S(=O)(=O)N3CCC(C(=O)N4CCN(c5ccccc5F)CC4)CC3)ccc2N1C(=O)C1CC1 (configuration not stated)
    8%	.	?	4%	?	.	-2%	?
NC(=O)c1ccccc1NCC(=O)c1ccc(F)cc1
    -6%	.	6%	4%	2%[46.1 µM]	.	-5%	-2%
COc1ccc(S(=O)(=O)n2nc(C)c(S(=O)(=O)N3CCCCCC3)c2C)cc1C
    .	6%	9%	.	.	-1.7%	.	1%[46.1 µM]
O=C(COc1ccc(Br)cc1)c1ccc2c(c1)CCCC2
    8%	-10%	-22%	5%	-4%	0.1%	-2%	-11%
O=C(Nc1ccccc1)N1CCN(c2ccc(F)cc2)CC1
    0%	6%	7%	0%	3%[46.1 µM]	1.3%	-41%	4%
Cc1cccc(NC(=O)CN(CC2CCCO2)C(=O)c2cc(S(=O)(=O)N(C)C)ccc2F)c1C (configuration not stated)
    .	.	4%	-11%	3%[46.1 µM]	.	-2%	-20%[46.1 µM]
Cc1ccn(CCC(=O)Nc2ccc3c(c2)OCO3)n1
    -8%	.	29%	-7%	.	.	?	.
CC1(c2nnc(Cc3ccccc3)o2)CC(c2ccc([N+](=O)[O-])cc2)=NO1 (configuration not stated)
    -44%	.	?	-21%	.	.	-2%	.
COc1ccccc1CNC(=O)Cn1ncn2c(cc3sccc32)c1=O
    .	8%	2%	.	-8%[46.1 µM]	1.0%	.	.
COC(=O)c1[nH]c2cc(OC)c(OC)cc2c1NC(=O)Oc1ccccc1
    -2%	-1%	-2%	-14%	-10%	2.1%	4%	4%
O=C(CSCc1ccccc1Cl)N1CCN(c2ccc(Cl)cc2)CC1
    .	5%	-11%	.	.	-0.1%	.	13%[46.1 µM]
O=S(=O)(CCN1CCCCC1)CCS(=O)(=O)CCN1CCCCC1
    .	.	2%	1%	0%[46.1 µM]	.	.	1%[46.1 µM]
Cc1cc(Cl)ccc1OCC(=O)OC(C)C(=O)N(C)C (configuration not stated)
    -2%	-2%	12%	1%	4%	2.7%	7%	5%
Cc1cccc(NC(=O)CN2C(=O)CCn3nc(-c4cccn4C)cc32)c1C
    .	9%	50%[activator]	.	.	-1.7%	.	-4%[46.1 µM]
Cc1ccc(CNC(=O)c2c(O)nc3cc(C)ccn3c2=O)cc1
    .	-5%	6%	.	?	-0.6%	.	.
CC1=CC(C)(C)N(C)C(=O)N1c1ccc(Cl)cc1
    -22%	-5%	-19%	3%	13%[46.1 µM]	2.6%	-3%	25%
Cc1c(Cl)cccc1NC(=O)C(=O)NNS(=O)(=O)c1ccc(F)cc1
    2%	.	-1%	14%	.	.	-5%	.
Cc1cc([N+](=O)[O-])cnc1NC(C)c1ccccc1 (configuration not stated)
    -14%	-21%	-16%	4%	-7%	-4.5%	0%	-8%
CCN(CC)CCCNC(=O)C(C)Sc1nc(-c2ccccc2)cc(C(F)(F)F)n1 (configuration not stated)
    3%	.	-3%	-2%	.	.	1%	.
CC(=O)C1=C(C)N(Cc2ccco2)C(=O)C1(NC(=O)C1CCCCC1)C(F)(F)F (configuration not stated)
    -7%	-1%	17%	4%	?	0.7%	-5%	-2%
CC(OC(=O)CN1C(=O)c2ccccc2C1=O)C(=O)NCc1ccccc1 (configuration not stated)
    11%	.	0%	-13%	12%	.	?	11%
COC(=O)c1c(NC(=O)CN2CCCC(C)C2)c2c(C)cccc2n1C (configuration not stated)
    5µM*	2%	-6%	-7%	?	-4.4%	11%	8%
COc1ccc(CN2CCSCC2)c(C)c1C
    -11%	.	-17%	5%	17%	.	-3%	-1%
CCN(Cc1ccccc1)C(c1cccs1)c1nnnn1C1CCCCC1 (configuration not stated)
    -39%	1%	-20%	-9%	?	2.5%	-21%	-18%
CC(C)(C)C1CCC(OC(=O)CN2CCCCC2)CC1 (configuration not stated)
    2%	.	55%[activator]	-15%	10%[46.1 µM]	.	1%	3%
CC(C)NS(=O)(=O)c1ccc(OCC(=O)Nc2ccc(F)cc2)cc1
    .	.	12%	0%	-16%[46.1 µM]	.	-1%	0%
O=C(Nc1cccc(C(F)(F)F)c1)c1cc(-c2ccc(F)cc2)on1
    0%	-6%	11%	15%	?	-3.5%	8%	6%
COc1ccc(OCC(O)Cn2c(=N)n(Cc3ccccc3)c3ccccc32)cc1 (configuration not stated)
    -4%	4%	?	11%	4.1µM*	-7.6%	-1%	?
O=C1OC(CCl)CN1Cc1c(Cl)cccc1Cl (configuration not stated)
    .	.	-5%	2%	-30%[46.1 µM]	.	.	-7%
c1ccc(-c2noc(-c3cccs3)n2)nc1
    -6%	-5%	.	?	?	-1.6%	-38%	?
O=C(CSc1nc2ccccc2s1)NCCOc1ccc(Cl)cc1
    -38%	5%	-13%	16%	?	-3.5%	-4%	6%
Cc1cccc(C)c1OCCn1c(C2CC(=O)N(c3cccc(Cl)c3)C2)nc2ccccc21 (configuration not stated)
    .	-9%	?	.	-2%[46.1 µM]	-4.9%	.	?
CC1CN(C(NC(=O)C(C)(C)C)C(Cl)(Cl)Cl)CC(C)O1 (configuration not stated)
    ?	8%	17%	13%	-9%[46.1 µM]	3.1%	1%	3%
Cc1ccc(N2C(=O)c3ccc(C(=O)N4CCOCC4)cc3C2=O)cc1C
    -2%	11%	-9%	-13%	3%	-2.9%	5%	-1%
O=C(Nc1cc(S(=O)(=O)N2CCOCC2)ccc1O)c1ccc(NS(=O)(=O)c2ccc(Cl)s2)cc1
    1%	-6%	-2%	-5%	3%	-13%	13%	3%
CC(C)CCC(=O)N1CCOC1=O
    5%	.	-15%	4%	.	.	-2%	.
COc1ccc(S(=O)(=O)N2CCCC(C(=O)NCc3ccccn3)C2)cc1 (configuration not stated)
    6%	6%	-3%	0%	-3%	4.4%	-3%	3%
Cc1cnc(C(=O)OCC(=O)NC(C)CCc2ccccc2)cn1 (configuration not stated)
    .	.	-4%	3%	-11%[46.1 µM]	.	-2%	-1%[46.1 µM]
CCOc1ncccc1C(=O)NCCc1ccc(S(N)(=O)=O)cc1
    -11%	.	-2%	-20%	0%[46.1 µM]	.	3%	-11%[46.1 µM]
